# Compound activity deposited in PubChem BioAssay by National Center for Advancing Translational Sciences (NCATS).
# RE007 growth inh – less growth of the S. pombe RE007 Vpr strain; S. pombe RE007 Vpr strain, BacTiter-Glo ATP luminescence, 24 h; control for the full effect not named in the record; Potency, µM (top dose mostly 92.2 µM), for the others: top-dose activity change, negative = less growth; hit rate 0.21% among 360,000; AID 651644; active = well fitted falling curve with a large enough effect; inconclusive = small, poorly fitted or top-dose-only effect; inactive = no such curve, though single readings can be large or run the other way;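 note: nearly all actives have a fitted effect of over 50% in size; the assay follows cell death caused by Vpr and the record does not say whether a fall means rescue or toxicity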
#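 Fission yeast RE007 carrying one integrated HIV-1 vpr copy, seeded at OD 0.01 in PMG+AL medium with 23 nL pinned compound. Grown 24 h at 30 degrees; viability read by BacTiter-Glo luminescence after 5 min.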
# 2A StopGo – FMDV 2A StopGo reporter, luciferase signal | hit rate 1.2% among 410,000 | Potency, µM (titrated, usually from 57.9 µM), for inactives: top-dose signal change, negative = less light | human cells with a luciferase reporter of 2A StopGo recoding; control for the full effect not named in the record; active = well fitted falling curve with a large enough effect; inconclusive = small, poorly fitted or top-dose-only effect; inactive = no such curve, though single readings can be large or run the other way; tested in HEK293T cells; note: nearly all actives have a fitted effect of over 45% in size; luciferase light after 4 h
# * hit, by the source's call; ? = inconclusive; [ ] = another dose, or the depositor's remark. % is set by controls: 0 for no effect and ±100 for the full control effect; potency is the fitted concentration of half-maximal effect.
mol,RE007 growth inh,2A StopGo
CCc1nc2ccc(C(=O)N3CCN(S(=O)(=O)CC)CC3)cn2c1N(CC)C(=O)NCCc1ccccc1,-4%,12%
COc1ccc(C(=O)NCCN2CCC(n3c(=O)[nH]c4ccccc43)CC2)cc1F,-11%,-26%
CC12CCCC(=O)C1CCC(=Cc1ccco1)C2=O (stereo not given),-13%,16%
CC1(C)S[C@@H]2C(C(=O)OCc3ccccc3)NC(=O)N2C1C(=O)OCc1ccccc1 (stereo not given in full),11%,-13%
COc1ccc(C2=NN(CCC(=O)NC3CCCCC3C)C(=O)CC2)cc1 (stereo not given),-7%,-11%
COc1ccc(-c2nc3c(Cl)cc(C(F)(F)F)cn3c2Cc2ccsc2)cc1OC,-6%,-26%
COc1ccc(NC(=O)Cn2nnc(-c3ccccc3)c2COc2ccc3ccccc3c2)cn1,10%,15%
COc1cc(OC)c(N(C)S(=O)(=O)c2cccc(C(=O)OCC(=O)N(C)Cc3ccccc3)c2)cc1Cl,-4%,-3%
O=C(NCc1cc(C(F)(F)F)cc(C(F)(F)F)c1)C1CC(c2ccccc2F)=NO1 (stereo not given),12%,-8%
O=C(Nc1cccnc1)C1Cc2c(-c3cccc(F)c3)ccnc2O1 (stereo not given),13%,?
CCN(CC)S(=O)(=O)c1cc(NC(=O)Cc2ccc(S(=O)(=O)N3CCOCC3)s2)ccc1Cl,4%,32µM*
COCCN1C(=O)COc2ccccc2C1C(=O)NC1CCCCC1 (stereo not given),-16%,0%
COc1ccc(NC(=O)C2(C)Cc3c(-c4cccc(C(N)=O)c4)ccnc3O2)cc1 (stereo not given),4%,-13%
Cc1ccc([C@@H]2C[C@H]3[C@@H](CN2S(=O)(=O)c2ccc(C)cc2)C(=O)C[C@@H](c2ccc(Cl)cc2)N3S(=O)(=O)c2ccc(C)cc2)cc1,8%,-18%
COc1ccc(-c2cnc3c(NC=O)cc(-c4ccc(F)cc4)cn23)cc1OC,1%,?
C[C@@H]1CN([C@H](C)CO)C(=O)CCCn2cc(nn2)CO[C@H]1CN(C)C(=O)Cc1ccccc1,-6%,-15%
O=C(COC(=O)c1c(Cl)cccc1Cl)NCC1CCCO1 (stereo not given),13%,-18%
O=C1c2cccc(-c3ccc(C(F)(F)F)cc3)c2C2CCCCN12 (stereo not given),14%,-8%
CC1=C(n2ccnc2)CCC1=O,-2%,-9%
C[C@@H]1CN([C@H](C)CO)C(=O)CCCn2nncc2CO[C@@H]1CN(C)C(=O)Nc1ccnc(N2CCOCC2)c1,-7%,-14%
CC1(C(=O)NS(=O)(=O)c2cccs2)CCN1C(=O)c1ccco1 (stereo not given),6%,-1%
O=C1C[C@@H]2c3c(cccc3CN1Cc1ccc(Br)cc1)C[C@@H](O)[C@H]2O,-14%,-13%
CC(C)Nc1ncnc2c1ncn2[C@H]1CN(Cc2ccc(Cl)cc2)C[C@@H](CO)O1,-2%[18.4 µM],9%
COc1ccc(C(=O)N/C(=C\c2cn(S(=O)(=O)N(C)C)c3ccccc23)C(=O)N2CCN(C)CC2)cc1OC,0%,?
C#CCOCCOCCOCCNc1nc(N2CCN(C(=O)Cn3cc(CCCCN)nn3)CC2)nc(N2CCN(C(=O)[C@H](Cc3ccc(O)cc3)n3cc(CCO)nn3)CC2)n1,12%,-4%
CC1=C(C(=O)N(C)C)CC(CC(=O)NCCCCc2ccccc2)C(=O)N1CCCN1CCCC1=O (stereo not given),5%,-11%
COc1ccc(CCN2C(=O)COc3ccccc3C2C(=O)NC(C)(C)C)cc1OC (stereo not given),9%,5%
CC1(C(=O)O)CCCN1C(=O)c1ccco1 (stereo not given),-1%,-13%
CC(=O)Nc1cc(-c2cccc(CO)c2)cn2c(-c3cccc(C(F)(F)F)c3)cnc12,14%,?
CCCCC[C@H](C)N1C[C@H](COCc2ccccc2)Oc2cc(N3CCC[C@@H]3CO)ccc2S1(=O)=O,1%,3%
CCCCN(C)C(=O)c1sc(=O)n(Cc2ccccc2F)c1C,-4%[18.4 µM],-6%
CC1(C(=O)NS(=O)(=O)c2ccccc2Cl)CCN1C(=O)C1CCCCC1 (stereo not given),4%,-16%
Cc1ccccc1-c1csc(C(O)c2ccc(F)cc2)n1 (stereo not given),-4%[18.4 µM],11%
CCOC(=O)C1(C)CCCCCN1C(=O)c1ccc(C(=O)OC)cc1 (stereo not given),-8%[18.4 µM],-24%
COc1ccccc1CNCCc1cccc(Cl)c1,1%,-15%
C[C@]12CCC[C@H](O1)c1c(cc3c(c1O)C(=O)c1c(O)cc(O)cc1C3=O)O2,-8%,-26%
CC1(Cc2cccc(C#N)c2)C(=O)Nc2ccc(-c3cccc(C(F)(F)F)c3)cc21 (stereo not given),3%,?
N#CC(c1cccc([N+](=O)[O-])c1)C(CC(=O)c1ccccc1)c1ccccc1 (stereo not given),-10%,?
Cc1cc(Nc2ccc(F)cc2)c2ccccc2n1,-10%,-27%
Cc1cc(C)n(-c2ccc(C(=O)N3CCN(S(=O)(=O)c4ccc(OC(F)(F)F)cc4)CC3)cc2)n1,13%,?
CC(C)(C)OC(=O)[C@H](Cc1ccccc1)NC(=O)c1ncn2c1c(=O)[nH]c1ccc(Br)cc12,-4%,?
CCN(CC(=O)Nc1ccccc1C(F)(F)F)CC(=O)c1[nH]c(C)c(C(C)=O)c1C,-23%,?
CC(C)C(=O)Nc1cccc(S(=O)(=O)NC2=NCCC2)c1,0%,-2%
O=C(NC1CC1)c1cccc(NC(=O)C2CCN(S(=O)(=O)c3ccccc3C(F)(F)F)CC2)c1,-8%,?
COc1ccc(-c2ccc(C(=O)NCc3ccccc3)c3occc23)c(C)c1,16%,35%[activator]
Clc1ccc(-c2cccc3nccn23)c(Cl)c1,-9%,-16%
CCC1(CC)NC(=O)N(CC(=O)OC(C)C(=O)Nc2ccc(S(N)(=O)=O)cc2)C1=O (stereo not given),13%,-4%
CC1(C)CC(=O)C=C(Nc2ccc(O)cc2)C1,2%,0%
COCCCn1cc(CN2CC(N(C)C)CS2(=O)=O)nn1 (stereo not given),19%,-17%
CCOc1ccccc1NC(=O)COC(=O)COc1cccc2c1OC(C)(C)C2,16%,-8%
CC(C)(C)OC(=O)N(Cc1ccccc1)Cc1ccccc1OCc1cccc(NC(=O)C2CCC2)c1,1%,-23%
CCOC(=O)C1CCCN(C(=O)c2ccc3c(c2)CCO3)CC1 (stereo not given),-8%[18.4 µM],-11%
CC1=C(C/C(C)=C/c2ccccc2)/C(=C/CO)[C@@H]2OC(=O)O[C@]2(C)C12CC2,-10%,-18%
CC(C)CCNC(=O)C1CC(c2ccccc2[N+](=O)[O-])=NO1 (stereo not given),3%,43%[activator]
O=C(Nc1nnc([C@@H]2O[C@H](CO)[C@@H](O)[C@H]2O)s1)Nc1ccccc1C(F)(F)F,17%,-8%
CC1(C(=O)O)CCCN(C(=O)c2cccnc2Oc2ccccc2)C1 (stereo not given),-10%[18.4 µM],-18%
COc1ccc(-c2csc(C(C)(O)c3ccccc3)n2)cn1 (stereo not given),5%,-8%
C[C@H]1CCCCO[C@H](CN(C)Cc2ccc(C(=O)O)cc2)[C@@H](C)CN([C@@H](C)CO)C(=O)c2cc(NS(=O)(=O)c3cn(C)cn3)ccc2O1,8%,-22%
CC(=O)C1=C(O)C(=Cc2ccccc2)OC1=O,?,-8%
CCO[C@H]1OC(C(=O)NCc2nc3ccccc3[nH]2)=C[C@@H](c2ccc(Br)cc2)[C@@H]1CCCO,1%,-18%

# Going on with the list.
mol,RE007 growth inh,2A StopGo
CC(=O)c1nn(-c2ccccc2)c(=Nc2ccccc2)cc1C,-11%,-6%
CC(=O)c1cccc(-c2ccc3c(c2)C(C)(Cc2ccc(S(C)(=O)=O)cc2)C(=O)N3)c1 (stereo not given),6%,4%
O=[N+]([O-])c1cc(Br)c2c(c1)CCN2,-19%,?
CC1(C)CC(=O)C=C(c2ccccc2-c2ccc3cc[nH]c3c2)C1=O,-13%,-23%
Cn1nc(C2CC2)cc1NC(=O)C1(C)CCN1C(=O)CC(c1ccccc1)c1ccccc1 (stereo not given),-8%,-24%
Cc1ccc(NC(=O)C2(C)CCN2C(=O)Cc2ccccc2)cc1C (stereo not given),-2%,-26%
O=C(CSc1nnc(CNC(=O)c2c(F)cccc2F)o1)NCc1ccc2c(c1)OCO2,0%,-7%
C[C@H](CO)N1C[C@H](C)[C@H](CN(C)C(=O)Nc2ccc(C(F)(F)F)cc2)OCc2cnnn2CCCC1=O,3%,-12%
CCOC(=O)[C@]12CCC=C1N(Cc1ccc3c(c1)OCO3)C(=O)[C@H](CC(=O)N1CCC(c3ccccc3)CC1)C2,4%,-14%
COC(=O)C1=C(c2cccc(OC)c2OC)C[C@@H]2CC[C@H]1N2C(=O)N1CCC(C)CC1,12%,8%
CSc1ccccc1CNC(=O)C1(C)CCCN1CC(C)C (stereo not given),-13%[18.4 µM],-8%
O=c1c2ccccc2on1-c1ccccc1,-26%,60%[activator]
O=C(O)c1ccc(Cl)c(NC(=O)C2CCN(S(=O)(=O)c3cccs3)CC2)c1,7%,-9%
Nc1c(-c2cccs2)nc2ccccn12,?,26%
O=C(NCc1ccccc1)C1c2ccccc2OCC(=O)N1Cc1ccco1 (stereo not given),9%,-16%
COc1cc(CC(=O)C(=O)O)oc(=O)c1,4%,6%
CCC(C)CN1C(=O)CN(S(C)(=O)=O)CC1(C)C(=O)NC(C)C (stereo not given),0%,0%
O=C1c2ccccc2C(c2nnnn2-c2ccc3c(c2)OCCO3)N1CCCN1CCOCC1 (stereo not given),18%,4%
CCN1CCN(c2ccc(S(=O)(=O)N3CCOCC3)cc2NC(=O)c2cc(F)c(F)c(F)c2F)CC1,13%,-1%
CC(N)c1csc(Nc2cc(Oc3ccccc3)ncn2)n1 (stereo not given),4%[18.4 µM],-1%
CC1(C)NC(=O)N(CC(=O)Nc2ccc(-c3ccccc3)cc2)C1=O,4%,-22%
Cc1ccc(S(=O)(=O)NNC(=O)C23CCC(CC2)C3)cc1,-7%,31%[activator]
O=C(Nc1ccc(F)cc1)C(c1cc2ccccc2o1)N1CCN(C(=O)c2ccco2)CC1 (stereo not given),0%,0%
C[C@@H]1CCCCO[C@@H](CN(C)Cc2ccc(C(F)(F)F)cc2)[C@@H](C)CN([C@H](C)CO)C(=O)c2cc(N(C)C)ccc2O1,-6%,-12%
Cc1cc(C)c(C)c(C(O)(C(=O)O)c2ccccc2)c1 (stereo not given),-10%,-8%
O=C(O)CSC1CC(=O)N(c2ccc(F)cc2)C1=O (stereo not given),-3%,-13%
Cc1ccccc1S(=O)(=O)N1[C@@H](c2cccc(Cl)c2)C(C(=O)OC(C)(C)C)=CC[C@H]1c1ccc(Cl)cc1,8%,-25%
CN(Cc1ccccc1C(F)(F)F)C(=O)C1CCC(=O)N(CC2CCCCC2)C1 (stereo not given),-16%,-18%
COC(=O)c1ccc(CNC(=O)COC(=O)CNS(=O)(=O)c2ccc(C)cc2)cc1,10%,2%
CCOC(=O)c1c(NC(=O)CN2CCN(c3cccc(Cl)c3)CC2)sc(C)c1C,10%,-11%

# Entries listed so far containing an aryl thioether with sulfur outside any ring (two):
mol,RE007 growth inh,2A StopGo
O=C(CSc1nnc(CNC(=O)c2c(F)cccc2F)o1)NCc1ccc2c(c1)OCO2,0%,-7%
CSc1ccccc1CNC(=O)C1(C)CCCN1CC(C)C (stereo not given),-13%[18.4 µM],-8%

# More structures:
mol,RE007 growth inh,2A StopGo
CCCCCCN1C[C@@H](n2cc(COC(=O)c3ccccc3)nn2)[C@H](O)C[C@@H]1c1ccc(Cl)cc1,10%,-28%
O=C(O)CC(C(=O)O)C(=Cc1ccccc1)c1ccccc1 (stereo not given),-10%,-1%
COC(=O)[C@H]1C[C@H]1[C@@H](NC(=O)c1ccc[nH]1)c1ccccc1,1%,-5%
CCN(CC)CCNC(=O)c1ccc(NC(=O)c2ccc(-n3cncn3)c([N+](=O)[O-])c2)cc1,4%,-26%
Cc1cnc(-c2nc3ccccc3n2C(C(=O)NC(C)(C)C)c2ccccc2)cn1 (stereo not given),9%,-2%
COCCNc1nc(Nc2ccc(C)cc2C)c2sc(-c3ccccc3)cc2n1,-18%,?
CC1(C(=O)O)CCN1C(=O)/C=C/c1ccccc1 (stereo not given),15%[18.4 µM],-5%
CN(C(=O)c1cc(COc2ccc(F)cc2Cl)on1)C1CCOC1 (stereo not given),-21%,-3%
CCCCCCCCCCCCN1[C@@H](CC(C)=O)c2cc(F)cc(F)c2S1(=O)=O,7%,?
Cc1cccc(C)c1NC(=O)C(c1ccc(C#N)cc1)n1c(=O)c(-c2ccco2)nc2ccccc21 (stereo not given),0%,-6%

# Reformatted field by field: entries from further up.
> O=[N+]([O-])c1cc(Br)c2c(c1)CCN2
  RE007 growth inh: -19%
  2A StopGo: ?

> CC(C)(C)OC(=O)[C@H](Cc1ccccc1)NC(=O)c1ncn2c1c(=O)[nH]c1ccc(Br)cc12
  RE007 growth inh: -4%
  2A StopGo: ?

# Only part of the results is shown; the hit share may differ from the screen's.
